From PubChem BioAssay
miR-21 FLuc: qHTS Assay for Modulators of miRNAs and/orActivators of miR-21. 340,000 tested, under 10 active. Potency, µM (doses to about 38.3 µM), without a hit: top-dose reporter change, positive = more light. AID 2288, 2010. HeLa miR-21 FLuc reporter, luciferase, 48 h; active = well fitted rising curve with a large enough effect; inconclusive = small, poorly fitted or top-dose-only effect; inactive = no such curve, though single readings can be large or run the other way;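 note: % of control where 0% means no effect; miR-21 action dims this reporter so a rising signal means less miR-21 action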
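HeLa cells endogenously expressing miR-21, stably carrying CMV-driven firefly luciferase with a downstream miR-21 binding site, 2000 cells/well. Titrations up to approximately 40 uM, 48 hours; luciferase luminescence read.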
Rango-impB inh: qHTS Assay for Inhibitors of Rango (Ran-regulated importin-beta cargo) - Importin beta complex formation | Importin subunit beta-1 (Homo sapiens), Q14974 | Rango CFP/YFP FRET sensor + importin beta, 45 min | Potency, µM (highest dose often 92.2 µM), without a hit: at the highest dose inhibition of complex formation | 0.031% of 340,000 active | AID 540263, 2011; active = rising FRET ratio curve, often small or poorly fitted; inconclusive = mostly compound fluorescence or quenching in the first reads; inactive = flat curves in all reads;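 note: potency is the fitted concentration of half-maximal effect; 0% = DMSO wells and 100% = buffer wells lacking importin beta; nearly all actives have a fitted effect of over 15% in size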
Target sequence (Q14974 whole entry, looked up): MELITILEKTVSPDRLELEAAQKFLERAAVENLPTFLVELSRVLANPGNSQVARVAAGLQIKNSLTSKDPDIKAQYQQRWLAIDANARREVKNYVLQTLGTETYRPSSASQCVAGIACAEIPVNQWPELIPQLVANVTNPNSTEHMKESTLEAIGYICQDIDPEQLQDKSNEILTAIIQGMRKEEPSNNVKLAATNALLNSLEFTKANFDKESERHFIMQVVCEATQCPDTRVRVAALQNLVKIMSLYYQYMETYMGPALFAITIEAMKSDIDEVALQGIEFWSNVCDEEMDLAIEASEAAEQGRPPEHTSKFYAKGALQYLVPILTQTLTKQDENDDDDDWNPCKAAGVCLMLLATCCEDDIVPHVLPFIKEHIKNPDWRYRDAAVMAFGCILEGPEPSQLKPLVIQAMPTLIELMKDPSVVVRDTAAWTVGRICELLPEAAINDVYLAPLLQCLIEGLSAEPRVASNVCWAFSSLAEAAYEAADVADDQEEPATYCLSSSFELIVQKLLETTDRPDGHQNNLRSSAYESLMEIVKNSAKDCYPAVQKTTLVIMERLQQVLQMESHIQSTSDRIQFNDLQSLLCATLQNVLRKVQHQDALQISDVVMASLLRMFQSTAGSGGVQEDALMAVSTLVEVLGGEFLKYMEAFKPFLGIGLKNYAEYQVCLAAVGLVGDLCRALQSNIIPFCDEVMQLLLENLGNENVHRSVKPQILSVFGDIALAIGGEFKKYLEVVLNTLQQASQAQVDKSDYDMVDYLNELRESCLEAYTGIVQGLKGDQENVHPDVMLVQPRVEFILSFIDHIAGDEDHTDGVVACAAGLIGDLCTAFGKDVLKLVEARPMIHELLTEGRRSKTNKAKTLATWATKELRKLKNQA
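FRET biosensor (snurportin 1 IBB flanked by EYFP and cerulean), 50 nM, with compound 5 min, then 0.125 microM importin beta in PBS, 1 mM DTT, 0.02% Tween-20, 0.1% BSA. CFP/YFP ratio read after 45 min at room temperature; pre-read flags interference.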
GLA inh pH 4.5: qHTS Assay for Inhibitors of Human alpha-Galactosidase at pH 4.5; purified enzyme, 4-MU-alpha-Gal fluorescence, pH 4.5; activity change, negative = inhibition, % at 105 µM; 230,000 tested, under 10 active; AID 1467, 2008; inconclusive = small, poorly fitted or top-dose-only inhibition, or a rising curve; inactive = flat fitted curve, though single readings scatter; no compound was filed as active;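 note: 0% = full activity with enzyme and -100% = basal without enzyme; dose as in the result columns while the protocol names 77 µM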
Rango release inh: qHTS Assay for Inhibitors of RanGTP induced Rango (Ran-regulated importin-beta cargo) - Importin beta complex dissociation. Snurportin-1 (Homo sapiens) + GTP-binding nuclear protein Ran (Homo sapiens) + Importin …. Biochemical FRET Rango-importin beta, RanGTP-induced dissociation. Potency, µM (series often up to 46.1 µM), inactives show at the top dose activity change, negative = inhibition. 0.071% of 340,000 active; active means falling FRET ratio curve, often poorly fitted, with flat reads before Ran was added; inconclusive means other falling curves, or compound fluorescence or quenching; inactive means flat or rising ratio curve;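 note: potency is the fitted concentration of half-maximal effect; % of control where 0% means no effect; nearly all actives have a fitted effect of over 45% in size; -100% = wells without RanGTP and RCC1; the record marks most hits as doubtful in a second field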
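Quantitative HTS using a FRET biosensor: 0.1 uM Rango, 0.25 uM importin beta, 0.6 uM Ran, 2 mM GTP, 0.2 uM RCC1 final, PBS with DTT, Tween-20 and BSA. Post-read taken 45 min after Ran addition.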
Numbers without * were called inactive; ? = inconclusive; nt = not tested or not shown; & = joins results of further samples; [ ] = dose if it differs, or a comment.

Values in the order – miR-21 FLuc, Rango-impB inh, GLA inh pH 4.5, Rango release inh
O=C(NCCCN1CCN(c2ccc(F)cc2)CC1)C1CCCN(c2ncnc3c2nc2n3CCCCC2)C1 (stereo not given)
  1%, 2.1%, nt, 6%
CC(=O)N1c2ccc(S(=O)(=O)N3CCCC(C(=O)N4CCCCC4)C3)cc2CC1C (stereo not given)
  7%, 6.5%, nt, -12%
Cc1ccc(C(=O)N/C(=C/c2cccs2)C(=O)NCCc2c[nH]c3ccccc23)cc1
  8%, 1.0%, -4, -16%
Cc1nnc(NC(=O)CSc2nnc(CNC(=O)c3ccc(F)cc3)o2)s1
  1%, ?, nt, 6%
N#CCCN(NC(=O)OCc1ccccc1)C(=O)OCc1ccccc1
  nt, -0.6%, nt, 0%
CCc1ccc(NC(=S)NC2CCN(Cc3ccccc3)CC2)cc1
  29%, -0.7%, -11, -7%
Cc1cc(C(F)(F)F)nn1CC(=O)NCc1cccs1
  -1%, -1.2%, 13, -5%
COc1ccccc1-n1c(SCC(N)=O)nc2c(c1=O)SCC2
  2%, -0.7%, 0, 1%
Cn1c(CCN2CCN(c3ccccn3)CC2)nc2cc(NC(=O)COc3ccccc3)ccc21
  22%, 0.2%, nt, -16%
CCCCCCCC1c2c(c(C)c(C)oc2=O)Oc2c(C)c(C)oc(=O)c21
  nt, -1.7%, nt, -8%
CC(=O)Nc1ccc(S(=O)(=O)NC2(C(F)(F)F)NC(=O)N(c3ccc(C)cc3)C2=O)cc1 (stereo not given)
  0%&-3%, 0.7%, nt, 25%
Nc1nc2c(Cl)ccc(Cl)c2s1
  -18%, 0.7%, -8, -10%
CC(=O)c1ccc(CCCC(=O)O)cc1
  -2%, 5.7%, 1, 23%
COC(=O)[C@]1(C)N[C@H](CN(C)S(=O)(=O)c2ccc(C)cc2)[C@@H]2C(=O)N(C)C(=O)[C@@H]21
  nt, -1.2%, nt, 26%
C=CCn1cccc(C(=O)Nc2cc(OC)cc(OC)c2)c1=O
  -25%, -3.3%, 5, 1%
CCOC(=O)C1CCCN(S(=O)(=O)c2c(C(=O)N3CCCCC3)c(C)n(C)c2C)C1 (stereo not given)
  0%, -4.1%, nt, -2%
CC1(C)Cc2c(ccc3ccccc23)C(=O)N1
  17%, -2.1%, 2, 7%
Nc1c(-c2ccccc2)cnc2cc(-c3ccccc3)nn12
  -62%, 0.3%, 2, -2%
CC1=Nc2ccccc2N=C(NC(=O)c2ccccc2)C1c1ccccc1 (stereo not given)
  -44%, -1.1%, 3, 0%
C/C(=N\NC(=O)CN1CCN(S(=O)(=O)c2ccc(C)cc2)CC1)c1ccc(O)cc1
  0%, -0.2%, 1, 16%
CCOc1ccc(N2CCCCn3c2nc2c3c(=O)[nH]c(=O)n2C)cc1
  -4%, nt, -2, nt
CC(Sc1nc(-c2ccccc2)cc(C(F)(F)F)n1)C(=O)O (stereo not given)
  -5%, ?, 3, -16%
CC(=O)NC(CC(=O)N(Cc1ccccc1)c1cccc(C)c1)c1ccccc1 (stereo not given)
  9%, -1.1%, nt, -4%
CC(C)(C)NC(=S)NNC(=O)c1ccc2ncccc2c1
  -33%, ?, -23, 12%
CC(=O)c1ccccc1OCCOCCOCCOc1ccccc1C(C)=O
  -14%, -0.1%, 6, 10%
COc1cccc(CNC(=O)Cn2cc3c(n2)CCCC3)c1
  -6%, 7.2%, -6, 28%
COc1cc(C(=O)NC2CCN(C)CC2)ccc1Nc1ncc2c(n1)N(C1CCCC1)CCC(=O)N2C(C)C
  nt, 0.4%, nt, 3%
COc1ccc2ccccc2c1CN1CCN(C(=O)c2ccco2)CC1
  0%, -3.1%, nt, 1%
CCCn1c(NCc2cccs2)nc2ccccc21
  -21%, -1.2%, -17, 0%
O=C(CCN1CCN(c2ccccc2)CC1)Nc1ccc2c(c1)OCO2
  -1%, 1.6%, 2, 5%
CCOc1ccccc1CN1CCNC(=O)C1CC(=O)NCc1nccn1CC (stereo not given)
  3%, -0.1%, nt, 5%
CCOC(=O)N1CCN(C(=O)CNS(=O)(=O)c2cccs2)CC1
  -9%, -0.4%, 5, -15%
Cc1ccc(C)c(OCc2nnc(NC(=O)c3ccc4c(c3)OCO4)s2)c1
  -6%, 4.1%, 8, 7%
O=S1(=O)CCN(Cc2ccccc2Cl)CC1
  -2%, 8.9%, -3, 12%
Cc1cc(-c2nsc(=O)o2)c(S(C)(=O)=O)s1
  -1%, -0.3%, 1, -3%
Cc1ccc2cc3cc(C(=O)NC4CC4)oc3nc2c1
  -45%, 2.6%, nt, -9%
Cc1cc(C(=O)COC(=O)CC2Sc3ccccc3NC2=O)c(C)n1-c1cccc(C(F)(F)F)c1 (stereo not given)
  -3%, ?, 1, 0%
Cc1ccc(C(=O)N2CCNC(=O)C2CC(=O)Nc2ccccc2)cc1 (stereo not given)
  -8%, -0.1%, nt, 4%
CCN(CC)C(=O)c1n[nH]c(=O)c2ccccc12
  -2%, -1.2%, -28, -21%
COc1ccc(S(=O)(=O)N2CCOCC2)cc1NC(=O)c1sccc1C
  nt, -1.6%, nt, -12%

For convenience, some entries already given:
Values in the order – miR-21 FLuc, Rango-impB inh, GLA inh pH 4.5, Rango release inh
Cc1cc(C(=O)COC(=O)CC2Sc3ccccc3NC2=O)c(C)n1-c1cccc(C(F)(F)F)c1 (stereo not given)
  -3%, ?, 1, 0%
Cc1ccc(C(=O)N2CCNC(=O)C2CC(=O)Nc2ccccc2)cc1 (stereo not given)
  -8%, -0.1%, nt, 4%
CCN(CC)C(=O)c1n[nH]c(=O)c2ccccc12
  -2%, -1.2%, -28, -21%

Other compounds.
Values in the order – miR-21 FLuc, Rango-impB inh, GLA inh pH 4.5, Rango release inh
CC(C)(C)C(=O)Nc1cc2nn(-c3ccccc3)nc2cc1Cl
  1%, -2.4%, 2, 5%
Cc1ccc(C)c(NC(=O)CN(C)C(=O)c2oc3c(Cl)cccc3c2C)c1
  nt, -0.1%, nt, 18%
O=C(CN(C(=O)c1nsc(Cl)c1Cl)c1ccc(F)cc1)NC1CCCC1
  5%, 0.2%, nt, -2%
COc1cc([N+](=O)[O-])cc(/C=C2/SC(=S)N(Cc3ccccc3)C2=O)c1O
  19%, 14%, nt, -6%
CCOc1ccccc1Oc1cn[nH]c1-c1ccc(O)cc1O
  12%, -0.9%, nt, -23%
O=C(NC1CC1)c1ccc(CSCc2cccc(F)c2)o1
  -22%, 0.6%, -16, -8%
CCC(CC)C(=O)Nc1cccc(/C(C)=N\NC(=O)c2ccc(C)s2)c1
  -4%, -4.3%, 5, -7%
COCCN1CCn2c(nc3cc(NC(=O)c4cccs4)ccc32)C1
  -38%, 1.2%, 6, -1%
C=CCn1c(N)c(C(=O)NCc2ccco2)sc1=S
  -14%, 0.4%, -4, 2%
Cc1ccc2c(c1)C1(C(=O)N2C)N2CC3(C)CN1CC(C)(C2)C3=O (stereo not given)
  -6%, -1.8%, 1, 7%
CCOC(=O)c1c(NC(=O)c2cc3n(n2)C(C(F)(F)F)CC(c2ccccc2)N3)sc(C)c1C (stereo not given)
  0%, -0.2%, 14, -7%
Cc1nn(Cc2c(Cl)cccc2Cl)c(C)c1NC(=O)Cn1nc([N+](=O)[O-])c(Cl)c1C
  -1%, 2.9%, 5, 3%
Cc1cc(C(=O)COC(=O)Cc2n[nH]c(=O)c3ccccc23)c(C)n1-c1cccc(C(F)(F)F)c1
  19%, ?, -15, 12%
NC[C@@]12CCCC1C1CCC2C1 (stereo not given in full)
  -2%, nt, -3, nt
COc1ccccc1C(=O)CN1C(=O)NC2(CCCCCC2)C1=O
  nt, -1.5%, nt, -18%
COc1ccc(CNCC(O)COCc2cccs2)cc1 (stereo not given)
  -5%, -0.9%, -28, 13%
N#CC1(NC(=O)COC(=O)c2ccc(Cl)nc2)CCCCC1
  nt, -0.5%, nt, 4%
CCCc1cc(=O)oc2cc(C)cc(OCC(=O)NCc3cccnc3)c12
  0%, -1.3%, nt, -6%
O=[N+]([O-])c1cccc(-c2noc(-c3ccco3)n2)c1
  -36%, 0.9%, -2, -14%
Cc1ccc(-n2ccnc2SCC(=O)c2c(N)n(C3CC3)c(=O)[nH]c2=O)cc1C
  nt, ?, nt, 13%
COC(=O)c1sccc1NC(=O)c1csc2c1CCCC2
  -21%, -2.0%, -4, 20%
O=C(CSCc1ccccc1)Nc1ccc(F)cc1F
  -45%, -3.1%, 4, -1%
COc1cc(-n2c(-c3ccccc3)n[nH]c2=S)c(OC)cc1Cl
  2%, 0.3%, 4, ?
Nc1nonc1-n1nnc(C(=O)N/N=C/c2ccc(OCc3ccccc3)cc2)c1COc1ccc(F)cc1
  -2%, -1.3%, 13, -2%
Cc1ccc(C(=O)CN(C(=O)c2ccc(Cl)c(Cl)c2)N2C(=O)C3CCCCC3C2=O)cc1 (stereo not given)
  -1%, 0.5%, 0, -3%
COc1ccc(-c2cc(=O)c3c(OC)c(OC)c(OC)c(OC)c3o2)cc1
  nt, -0.5%, 0, -8%
CCc1nnc(NC(=O)c2ccc(COc3ccccc3)o2)s1
  -12%, -0.4%, -7, -18%
COc1ccc(N(CC(=O)NC(C)(C)C)S(=O)(=O)c2ccccc2)cc1OC
  -9%, 1.9%, 2, 0%
COc1cccc(/C=N/NC(=S)NC2CC3CCC2C3)c1OC (stereo not given)
  -3%, 1.3%, -8, 10%
Cc1ccccc1CC1(CO)CCCN(C(=O)CCC(F)(F)F)C1 (stereo not given)
  -2%, 4.9%, nt, 3%
CC(=O)c1sc(NC(=O)C2CCN(C(=O)c3ccc(F)cc3)CC2)nc1-c1ccccc1
  nt, 0.4%, nt, 8%
O=C(Nc1ccc(-c2nnc(-c3ccccc3)o2)cc1)c1ccc(Br)o1
  nt, -3.3%, nt, 8%
CC(=O)Nc1ccc2nc3c(=O)n(C)c(=O)n(C)c3nc2c1
  2%, ?, -8, ?
Cn1nnnc1SCC1=C(C(=O)O)N2C(=O)C(NC(=O)Cn3nc(C(F)F)cc3C3CC3)C2SC1 (stereo not given)
  -1%, -2.3%, -5[21.1 µM], -7%
CC(C)N1CCN(C(=O)c2ccc(OC3CCN(CCc4ccccc4)CC3)cc2)CC1
  -17%, 2.8%, nt, 9%
Brc1cnc2ccccc2c1N1CCCCC1
  nt, -0.6%, nt, -8%
CCc1ccc(NS(=O)(=O)c2ccc3[nH]cc(C(=O)N(C)Cc4ccco4)c(=O)c3c2)cc1
  -1%&-2%, ?, -2, ?
COCCNC(=O)CN(Cc1ccc(Cl)cc1)S(C)(=O)=O
  2%, -1.3%, 0, -3%
COc1ccc2cc(-c3[nH]ncc3CN3CCCCO3)ccc2c1
  -36%, 0.0%, 4, -11%
Cc1ccc(Cl)cc1NS(=O)(=O)N1CCOCC1
  -3%, -0.5%, nt, 0%
CS(=O)(=O)N(CC(=O)N/N=C/c1cc([N+](=O)[O-])ccc1Cl)c1ccccc1
  -1%, -0.3%, 2, 7%
CN(C)C(=O)C(=O)c1c(-c2ccccc2)cc2ccccn12
  -3%, -2.3%, -5, -8%
Cc1onc(-c2ccccc2Cl)c1C(=O)Nc1ccc(S(=O)(=O)Nc2nccs2)cc1
  -7%, -2.9%, 6, -2%
CCNC(=O)CSc1nnc(C2CC2)n1-c1ccccc1
  0%, 2.7%, -7, 25%
COC(=O)c1cc(Br)c(=O)n(-c2ccccn2)c1
  -4%, -2.3%, 8, -11%
CCOC(=O)c1sc(-c2ccc(Cl)cc2Cl)nc1O
  -19%, ?, -20, ?
CCOc1ccccc1C(=O)N(CCC(=O)OC)c1ccccn1
  -7%, -0.2%, -1, -1%
C=CCNC(=O)C1CCCN(S(C)(=O)=O)C1 (stereo not given)
  -1%, -3.1%, -4, 7%
COc1ccc(NC(=S)N(CCc2c(C)[nH]c3ccc(C)cc23)Cc2cccs2)cc1
  16%, -3.8%, 9, -22%

This is a subset, so the mix of outcomes need not match the whole.
